HSV replic up = increases HSV replication in cells | HSV replication augmentation in cells, fold increase | maximum fold increase | hit rate 0.005% among 220,000 | AID 1956;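 active = peak rise of 1.5-fold or more in the series; tested in PC3 cells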;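 also: first round at 10 µM; read as green reporter fluorescence; hits show the peak of a series up to 25 µM; 1 = signal of infected wells without compound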
GALR2 ag = activates the human galanin receptor 2 | O43603 | GALR2-expressing cells, agonist activation read-out | activation, %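 (tested at 5 µM)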 | hit rate 0.48% among 140,000 | AID 803;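 active = above mean plus 3 SD of all compounds, about 5% in these data, not always enough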;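 also: 0% = vehicle buffer wells and 100% = reference agonist at full effect; tested in CHO reporter cells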
RGS16-Gao HTS = regulators of human RGS16-Galphao interaction. AID 1441. bead-based flow cytometry RGS16-Galphao binding, fluorescence; actives lie on both sides. O15492+P09471. hit rate 0.38% among 220,000. binding response (% of control), % at 10 µM;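 active = below 25% or above 175%, edge rows of some plates excepted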;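 also: Galphao activated by GDP with aluminum fluoride before binding; 100% = wells without compound and 0% = beads without RGS; some results beyond the cut were filed as inactive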
PKD1 inh = inhibitors of human PKD1 kinase | Q15139 | PKD1 kinase fluorescence polarization assay | inhibition, %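 (about 10 µM by stock and volumes)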 | hit rate 0.056% among 200,000;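 active = inhibition of 50% or more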;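 also: controls were vehicle for no effect and a reference inhibitor for full effect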
Target sequence (Q15139 whole entry, looked up): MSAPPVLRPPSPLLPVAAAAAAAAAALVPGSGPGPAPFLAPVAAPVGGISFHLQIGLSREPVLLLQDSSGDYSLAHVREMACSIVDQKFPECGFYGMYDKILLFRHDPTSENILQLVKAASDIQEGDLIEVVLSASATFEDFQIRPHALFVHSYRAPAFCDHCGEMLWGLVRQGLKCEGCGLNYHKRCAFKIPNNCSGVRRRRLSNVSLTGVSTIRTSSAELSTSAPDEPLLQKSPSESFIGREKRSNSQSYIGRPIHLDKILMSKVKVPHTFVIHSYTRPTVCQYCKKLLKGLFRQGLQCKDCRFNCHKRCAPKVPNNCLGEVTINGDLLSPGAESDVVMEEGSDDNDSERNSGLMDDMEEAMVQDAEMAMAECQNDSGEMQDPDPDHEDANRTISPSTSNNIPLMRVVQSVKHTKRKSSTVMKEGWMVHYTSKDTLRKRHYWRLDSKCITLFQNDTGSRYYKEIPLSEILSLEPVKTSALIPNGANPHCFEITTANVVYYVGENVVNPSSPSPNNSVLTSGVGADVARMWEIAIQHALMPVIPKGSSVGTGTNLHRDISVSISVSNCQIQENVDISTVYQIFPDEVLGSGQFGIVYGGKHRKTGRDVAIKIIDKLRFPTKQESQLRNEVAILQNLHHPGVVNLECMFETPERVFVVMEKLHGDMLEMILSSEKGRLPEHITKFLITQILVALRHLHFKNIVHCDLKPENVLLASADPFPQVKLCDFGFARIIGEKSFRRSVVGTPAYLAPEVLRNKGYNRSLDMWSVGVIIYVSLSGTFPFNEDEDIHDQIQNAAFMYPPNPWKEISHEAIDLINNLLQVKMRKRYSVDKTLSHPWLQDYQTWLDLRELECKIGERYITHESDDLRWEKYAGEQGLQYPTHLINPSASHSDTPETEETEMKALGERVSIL
INS promoter inh = TRM-6 insulin promoter activity inhibition. TRM-6 cells (human fetal islet line), insulin promoter-eGFP reporter, imaging; reporter expression induced with tamoxifen. inhibition, % at 2 µM. hit rate 0.9% among 130,000. AID 1273;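 active = inhibition above the mean plus 3 SD, with well images judged a real hit on visual review, cut at about 60% in these data, passing the limit was not always enough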
INS promoter inh cell count = also measured in INS promoter inh; calls as there; normalized cell count, %; measured here: cell count, toxicity; reference of the scale not given here;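 cells exposed to compound for 48 h; stained nuclei by imaging scaled within each plate; lower means fewer cells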
HSV replic up primary fold = second read-out of HSV replic up, no call of its own (marks repeat the call); fold increase; compound at 10 µM; measured here: primary screen fold increase 10 uM; tested in PC3 cells;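 GFP signal in the first replicate; 1 = infected wells without compound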
Active calls of the source: *; i = inactive; nt = not tested or not shown.

SMILES	HSV replic up	HSV replic up primary fold	GALR2 ag	RGS16-Gao HTS	PKD1 inh	INS promoter inh	INS promoter inh cell count
CC(=O)Cn1nnc2sc(-c3ccccc3)cc2c1=O	i	0.93	nt	101	-3	-50	102
Cc1ccc(-c2nc(C=Nc3cccc(C)c3)c(O)o2)cc1	i	0.91	nt	102	5	nt	nt
O/C(=C\Sc1nnc(Cc2ccccc2)o1)c1ccc(Br)cc1	i	0.93	-1.8	101	4	-71	112
CCCCN(C(=O)c1ccc(Cl)cc1)C1CC2CCC(C1)N2C (stereo not drawn)	i	0.9	0.4	97	-23	nt	nt
O=C(CN1CCN(C(=O)N2CCCCC2)CC1)Nc1ccc(F)cc1	i	1.1	0.2	103	-11	38	61
CCOC(=O)c1ccc(-c2ccc(C=O)o2)cc1	i	1.1	nt	100	nt	nt	nt
NS(=O)(=O)c1ccc(-n2nncc2C23CC4CC(CC(C4)C2)C3)cc1	i	0.94	-1.9	100	1	7	98
Cc1ccc(CN2C(=O)CCC2C(=O)NCCCN2CCCCC2C)cc1 (stereo not drawn)	i	1	-1.1	100	4	38	98
CCC/C(O)=C1\C(=O)CCCC1=NC(C)C(=O)O (stereo not drawn)	i	1	-1.9	96	5	8	162
O=C(c1cnc2n(c1=O)CCS2)N(c1ccccc1)C1CCCCC1	i	0.94	-3.5	101	-5	0	203
NC(=O)CC(c1ccccc1)c1ccco1 (stereo not drawn)	i	0.9	-2.6	103	-6	-14	84
COc1ccc2cc(C3CC(c4cccs4)=NN3C(C)=O)c(Cl)nc2c1 (stereo not drawn)	i	0.96	nt	105	nt	nt	nt
Cc1cc(/C=N/N2CCN(C)CC2)c(C)n1-c1ccccc1F	i	0.99	nt	101	-4	nt	nt
C(=C\c1ccccc1)/CN1CCN(c2ncnc3c2oc2ccccc23)CC1	i	1	-2.1	100	-9	21	115
N#C/C(=N\Nc1ccccc1[N+](=O)[O-])C(=N)N1CCCCC1	i	0.83	nt	103	-7	0	145
CCCC(=O)Nc1sc2c(c1C(=O)OCC)CC(C)(C)OC2	i	0.89	nt	98	-4	75*	124*
CSc1nnc(C)c(=O)n1COC(=O)c1cc(Cl)ccc1[N+](=O)[O-]	i	0.95	nt	103	-4	nt	nt
CN(Cc1ccc(F)cc1)Cc1nc(CCc2ccccc2)no1	i	1.1	nt	109	2	nt	nt
CCCCc1ccc(-c2csc(/C(C#N)=C\c3ccco3)n2)cc1	nt	nt	-1.0	112	9	38	103
COc1ccc(C(=O)Nc2nncs2)cc1S(=O)(=O)N1CC(c2ccccc2)CC1=O (stereo not drawn)	i	0.95	-1.8	106	-1	nt	nt
COc1ccc(-n2c(SCC(=O)Nc3nccs3)nnc2-c2ccoc2C)cc1	i	0.98	-0.9	98	3	nt	nt
CC(=O)Nc1c(C(=O)O)[nH]c2ccccc12	i	0.99	-1.4	100	-7	-1	130
Oc1c(C(Nc2nc3ccccc3s2)c2ccco2)ccc2cccnc12 (stereo not drawn)	i	0.57	-0.7	91	18	nt	nt
CNCC(O)Cn1c2c(c3ccccc31)CCCC2 (stereo not drawn)	i	0.91	nt	65	-6	nt	nt
O=C1OCC2=C1C(c1ccc(F)cc1)CC(=O)N2c1ccc(F)cc1 (stereo not drawn)	i	0.87	nt	97	4	nt	nt
COc1ccc2c(c1OC)C(=O)N(c1cccc(C)c1)C2=O	i	0.89	1.1	120	-6	nt	nt
Cc1c(O)ccc(NS(=O)(=O)c2ccccc2)c1C	i	0.93	nt	94	11	nt	nt
Cc1cc(C(F)(F)F)nn1Cc1n[nH]c(=S)n1-c1ccc(F)cc1	i	1	-1.2	100	2	8	62
O=c1[nH]nc(-c2ccc(F)cc2)cc1Cc1ccc(F)cc1	i	0.9	nt	105	nt	nt	nt
CC(=O)Oc1cccc(N2C(=O)C3C(C2=O)C2C=CC3C23CC3)c1 (stereo not drawn)	i	1.1	0.4	109	9	nt	nt

Three compounds drawn at random from the list so far, as already listed:
SMILES	HSV replic up	HSV replic up primary fold	GALR2 ag	RGS16-Gao HTS	PKD1 inh	INS promoter inh	INS promoter inh cell count
COc1ccc2c(c1OC)C(=O)N(c1cccc(C)c1)C2=O	i	0.89	1.1	120	-6	nt	nt
Cc1c(O)ccc(NS(=O)(=O)c2ccccc2)c1C	i	0.93	nt	94	11	nt	nt
CC(=O)Oc1cccc(N2C(=O)C3C(C2=O)C2C=CC3C23CC3)c1 (stereo not drawn)	i	1.1	0.4	109	9	nt	nt

Next results
SMILES	HSV replic up	HSV replic up primary fold	GALR2 ag	RGS16-Gao HTS	PKD1 inh	INS promoter inh	INS promoter inh cell count
Cc1ccc(Cn2c(=N)n(CC(=O)c3ccc([N+](=O)[O-])cc3)c3ccccc32)cc1	i	1.1	-0.6	116	14	nt	nt
Fc1ccc(C2CCCN2Cc2nc(Cc3ccccc3)no2)cc1 (stereo not drawn)	i	0.95	nt	106	-9	nt	nt
O=C(NCCN1CCOCC1)c1ccc2c(c1)N(Cc1ccccc1F)C(=O)CS2	nt	nt	-1.9	99	0	11	169
Cc1cc(C)c2nc(SCC(=O)N3CCCCC3)c(C#N)cc2c1	i	1	0.7	96	3	nt	nt
N#Cc1c(NC(=O)c2cnccn2)sc2c1CCCC2	i	0.94	-0.6	13	-9	14	88
Cc1cc2nc(C3CCCN(C(=S)Nc4ccccc4)C3)[nH]c2cc1C (stereo not drawn)	i	0.92	-2.8	90	-2	3	114
CCOC(=O)c1ccc(NC(=O)CSc2nnc(COc3ccccc3OC)n2CC)cc1	i	1	-2.4	100	-3	-29	85
O=S(=O)(Nc1nc2ccccc2nc1Nc1ccc2c(c1)OCO2)c1ccc(F)cc1	i	1.2	-0.5	104	8	nt	nt
O=C(Nc1nnc(-c2ccco2)s1)C1CCN(S(=O)(=O)c2ccc(Cl)cc2)CC1	i	0.81	-0.1	71	-19	nt	nt
Cc1cc[n+]2cc(-c3cccc([N+](=O)[O-])c3)c(-c3cccc([N+](=O)[O-])c3)cc2c1	i	1	-1.2	104	0	-92	49
COc1ccccc1C1(O)CCN(CC(=O)Nc2c(C)nn(C)c2C)CC1	i	0.97	-1.2	164	4	nt	nt
Cc1cc(C)c(C(=O)COC(=O)c2cccc(S(=O)(=O)NCc3ccccc3)c2)cc1C	i	0.93	-1.9	100	-7	nt	nt
Cn1cccc1C1NC(=O)c2c(sc3c2CCC(C(C)(C)C)C3)N1 (stereo not drawn)	i	0.97	-0.2	100	2	14	77
CC1=C(C(=O)Nc2ccccc2C)C(c2ccc(C)o2)N2C(=O)CSC2=N1 (stereo not drawn)	i	1.1	-3.5	161	-3	-67	82
CCc1nc(OCc2ccccc2)c2sc3nc4c(cc3c2n1)COC(C)(C)C4	i	0.96	-1.0	102	-8	7	90

2 entries from above, with values under each structure.
Results follow in this order: HSV replic up	HSV replic up primary fold	GALR2 ag	RGS16-Gao HTS	PKD1 inh	INS promoter inh	INS promoter inh cell count
- Cc1cc(C(F)(F)F)nn1Cc1n[nH]c(=S)n1-c1ccc(F)cc1
→ i	1	-1.2	100	2	8	62
- O=c1[nH]nc(-c2ccc(F)cc2)cc1Cc1ccc(F)cc1
→ i	0.9	nt	105	nt	nt	nt

More records follow.
SMILES	HSV replic up	HSV replic up primary fold	GALR2 ag	RGS16-Gao HTS	PKD1 inh	INS promoter inh	INS promoter inh cell count
Cc1ccccc1NC(=O)CSc1nc2ccccc2c2nc(CCn3cncc3C)nn12	i	0.97	-0.1	78	-5	-37	105
COc1cccc(-c2nn(-c3ccccc3)cc2CN(C)Cc2ccon2)c1	i	0.98	nt	104	-2	-33	77
Oc1[nH]c2ccc(Br)cc2c1N=Nc1nn[nH]n1	i	1	nt	109	nt	nt	nt
COC(=O)C1CCN(C(=O)NC(C)(C)C)CC1	i	0.97	-1.5	92	-11	44	124
CCCN(CCC)c1ccc(C(O)c2nnc(-c3ccccc3)o2)cc1 (stereo not drawn)	i	1	nt	101	1	nt	nt
N#CC(C(=O)NCCc1ccccc1)c1nc2ccccc2nc1N1CCCCC1 (stereo not drawn)	i	1.1	-2.1	99	7	nt	nt
O=C(NCC1c2ccccc2CCN1C(=O)CN1CCOCC1)C1CCCCC1 (stereo not drawn)	i	0.99	-1.1	105	-16	-55	120
Cc1ccc2cc(C#N)c(NCc3ccccc3)nc2c1	i	0.9	nt	105	-4	21	91
CN(C)CCNC(=O)Nc1ccc(Cl)c(Cl)c1	i	0.82	-1.1	95	5	27	118
COc1cccc2c1OC1(C)CC2NC(=O)N1Cc1ccccc1 (stereo not drawn)	i	1	-2.7	98	-13	0	98
CCOC(=O)c1ccc(NC(=S)N(CCCN2CCN(CC)CC2)Cc2cccs2)cc1	i	0.83	nt	86	1	nt	nt
CC(C)C(C(=O)OCC(=O)c1ccccc1)N1C(=O)C2C3C=CC(C3)C2C1=O (stereo not drawn)	i	0.91	nt	91	-3	-58	94
Cn1cc(C(=O)NCC2COc3ccccc3O2)c(=O)c2cc(S(=O)(=O)N3CCCCC3)ccc21 (stereo not drawn)	i	0.97	0.1	100	2	7	113
COc1ccc(O)c(CN2CCN(C/C=C/c3ccccc3)CC2)c1	i	1	-2.9	103	-4	-22	102
Oc1ccc(N=Cc2sc3ccccc3c2Cl)cc1	i	0.91	-0.8	66	-13	30	112
Clc1ccsc1-c1csc(-c2cccnc2)n1	i	0.85	-1.6	99	-6	-12	104
CCCCn1c(=N)n(CCOc2ccc(C)cc2)c2ccccc21	nt	nt	-0.3	121	-4	0	111
CCCc1cc(=O)[nH]c(SCC(=O)c2cc(C)n(CCC)c2C)n1	i	1.2	-0.3	102	-2	-18	55
COc1ccc(NC(=O)c2ccc3ccccc3n2)cc1S(=O)(=O)Nc1ccccc1Cl	i	0.88	0.2	104	-8	33	62
CC1CC(C)CN(c2oc(-c3ccco3)nc2C#N)C1 (stereo not drawn)	nt	nt	-3.0	88	-1	-10	90
CCn1c(-c2sc(-c3ccccc3)nc2C)n[nH]c1=S	i	0.95	nt	94	-1	nt	nt
CC1=CC(C)C(COC(=O)CN2CCCCC2)C(C)C1 (stereo not drawn)	i	0.99	nt	99	nt	nt	nt
COCCNC(=O)C(=O)Nc1cccc(Br)c1	i	0.77	-0.9	103	1	7	135
CN1CCc2nc3sc(C(=O)NCc4ccccc4)c(N)c3cc2C1	i	1	nt	99	-3	nt	nt
O=C(CSc1nnnn1C1CCCCC1)N1CCc2ccccc21	i	0.75	-0.6	94	5	8	125
Cc1ccc(OCC(=O)NC(=S)Nc2cccc(NC(=O)c3ccccc3)c2)cc1	i	0.97	-0.3	84	-16	28	56
CCc1nnc(NC(=O)c2ccc3c(c2)C(=O)N(CC(C)C)C3=O)s1	i	0.91	-0.2	104	-5	-25	155
CC(C)N(C(=S)Nc1cc(S(=O)(=O)N2CCOCC2)ccc1Cl)c1ccccc1	i	0.91	-1.6	104	-11	-132	170
CCn1c(SCC(=O)Nc2ccccc2)nnc1C1CCCCC1	i	0.94	-2.3	107	-7	31	164
O=C1C(C=NCc2ccco2)=C(O)c2ccccc21	i	0.89	-2.4	-57*	3	33	95
O=C(Nc1cccc(NC(=O)c2ccccc2[N+](=O)[O-])n1)c1ccccc1[N+](=O)[O-]	i	1	0.6	104	-5	-17	88
COc1cccc(CNc2ncn[nH]2)c1OCc1ccc(F)cc1	i	0.96	nt	108	12	nt	nt
Cc1csc(NC(=O)c2cn3ccccc3n2)n1	i	0.96	nt	102	0	nt	nt
CC(=O)NS(=O)(=O)c1ccc(N=c2ssc3c2-c2cc(C)c(C)cc2NC3(C)C)cc1	i	0.9	0.3	109	-1	-47	87
CC(C)c1ccc(CC(NC(=O)c2ccccc2)C(=O)NCC(=O)O)cc1 (stereo not drawn)	i	0.93	nt	95	-3	nt	nt
O=[N+]([O-])c1cn(-c2nc(-c3ccco3)cc(C(F)(F)F)n2)cn1	i	0.93	0.0	101	-9	41	128
C/C(=N\NC(=O)CSCc1ccc([N+](=O)[O-])cc1)c1ccccc1O	i	1.1	-0.6	106	5	8	73
C=CCOc1ccc(CNc2ccc3[nH]c(=O)[nH]c3c2)cc1	i	0.9	nt	102	4	38	28
COc1c(C(=O)Nc2c(C)n(C)n(-c3ccccc3)c2=O)ccc2ccccc12	i	0.89	-0.2	103	-2	45	100
CC(=O)Nc1cccc(NC(=O)CSc2nc3ccccc3o2)c1	nt	nt	-0.8	99	6	-42	40
Cc1cc(C)nc(N2C(=O)CC(Cc3ccccc3)C2=O)n1 (stereo not drawn)	i	0.98	-2.0	107	-10	17	152
Cc1ccc(C(=O)Nc2ccc(S(=O)(=O)NCc3ccco3)cc2)cc1	i	0.78	-1.4	86	-8	46	64
C=CCNC1=C(Cl)C(=O)N(c2cccc(Cl)c2Cl)C1=O	i	0.93	-1.6	118	-5	11	196

An excerpt from above in order of the GALR2 ag value, highest first.
SMILES | GALR2 ag
CC(=O)NS(=O)(=O)c1ccc(N=c2ssc3c2-c2cc(C)c(C)cc2NC3(C)C)cc1 | 0.3
COc1c(C(=O)Nc2c(C)n(C)n(-c3ccccc3)c2=O)ccc2ccccc12 | -0.2
Cc1cc(C)nc(N2C(=O)CC(Cc3ccccc3)C2=O)n1 (stereo not drawn) | -2.0
